Screening results as filed in PubChem BioAssay.
Tg IFNy HTS = T. gondii growth inhibition under IFN-gamma. Toxoplasma gondii growth in IFN-gamma-treated host cells; active compounds read low; reference of the scale not given here. activity change, negative = inhibition, %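 (about 20 µM by stock and volumes)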. actives 3.8% (n = 69,000). AID 1259416;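 active means below -70%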;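 further: host cells are HeLa cells infected with Toxoplasma gondii; parasite growth read as luciferase light; one replicate is shown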
An asterisk follows results filed as active; i = inactive; ! = not active in a repeat.

smiles	Tg IFNy HTS
CCCCOCc1n[nH]c(Cc2ccccc2)n1	10
CCn1c(C2CCCN(C(=O)c3nc4ccccc4s3)C2)nn(C)c1=O (stereo unspecified)	-3
CCC1CN(CCC(=O)N2CCN(Cc3nccn3C)CC2)Cc2cc(OC)ccc2O1 (stereo unspecified)	9
CC(=O)NC(=O)CCSc1ccccc1C(=O)NC(C)=O	8
Cc1ccc(-c2nnn(CC(=O)Nc3ccc(N4CCCS4(=O)=O)cc3)n2)cc1	5
CCOCC1CC2(CCN(C(=O)c3ccc4ccccc4n3)CC2)CO1 (stereo unspecified)	-10
O=C(CCc1ccc(F)cc1)N1C[C@H]2C[C@H](O)[C@@H](O)C[C@H]2C1	2
C[C@H](NC(=O)C[C@@H]1CC[C@H]2[C@H](COc3ccc(NC(=O)C4CCOCC4)cc3C(=O)N2C)O1)c1ccccc1	-12
CN1C(=O)CCc2cc(NC(=O)c3ccsc3)ccc21	110
CO[C@H](CN(C)Cc1ccc2c(c1)OCO2)[C@@H](C)CN(C(=O)c1ccccc1)[C@H](C)CO	-56
O=C1CO[C@H]2CN(C(=O)COc3ccccc3)C[C@@H]2N1	-27
CC[C@H]1OC[C@@H]2CN(C(=O)CN(C)C)CC[C@H]21	35
O=C(CCN1CCCCC1)NCC[C@@H]1CC[C@H](NS(=O)(=O)c2cccc(Cl)c2)[C@H](CO)O1	-37
COc1ccc(N(C)S(=O)(=O)c2csc(C(=O)Nc3ccon3)c2)cc1	-10
N#C[C@@H]1[C@H](c2ccc(C#Cc3ccccc3F)cc2)[C@@H](CO)N1C(=O)c1cccnc1	-53
Cc1ncc(-c2ccncc2)c(C2CCN(C(=O)c3cnsc3)CC2)n1	-12
COc1cccc(Nc2nc(C3CCNCC3)c3ccccn23)c1	375
CC(C)Nc1nc(NC(C)C)nc(Nn2cnnc2)n1	-22
O=C(c1cncc(-c2ccc3c(c2)OCO3)n1)N1CCOCC1	12
CO[C@H]1CN(C)C(=O)c2cc(NC(=O)c3ccc(Oc4ccccc4)cc3)ccc2OC[C@H](C)NC[C@H]1C	-98*
O=C(COC(=O)C1CC(=O)N(Cc2ccco2)C1)c1ccc(OC(=O)c2ccco2)cc1 (stereo unspecified)	9
CC(C)N(C)Cc1ncn2c1CN(C(=O)c1cnccn1)CCC2	-3
CC(c1cccc(-c2ccc(C(=O)O)o2)c1)N(C)C (stereo unspecified)	-3
Cc1cccnc1N1CCN(Cc2cccc(Cn3cccn3)c2)CC1	6
Cc1ccc2cc(CN(Cc3ccccc3)S(=O)(=O)c3ccccc3)c(=O)[nH]c2c1	-36
CC1=C(C(=O)NCCCN2CCCCC2)C2(CCCCCC2)OC1=O	124
COc1ccc(C(=O)NCCc2sc(-c3cccc(C)c3)nc2C)cc1OC	i
Cc1cc(C)nc(SCc2n[nH]c(=S)o2)n1	53
O=C(O)[C@H]1[C@H](CO)[C@H]2Cn3c(ccc(-c4cccc(F)c4)c3=O)[C@H]2N1C(=O)c1ccccn1	3
CCOCC1CN(Cc2ccco2)Cc2nccn2C1 (stereo unspecified)	9

An excerpt of these results, with each value named.
compound: CO[C@H](CN(C)Cc1ccc2c(c1)OCO2)[C@@H](C)CN(C(=O)c1ccccc1)[C@H](C)CO
  Tg IFNy HTS: -56

compound: O=C1CO[C@H]2CN(C(=O)COc3ccccc3)C[C@@H]2N1
  Tg IFNy HTS: -27

(continued)
smiles	Tg IFNy HTS
O=c1cc(CSc2nc3ccccc3s2)[nH]c2[nH]n(-c3ccccc3)c(=O)c12	77
FC(F)(F)C(F)(F)C(F)(F)c1nnc(-n2cccc2)s1	-62
COc1ccc(S(=O)(=O)NCCc2csc(-c3cccc(F)c3)n2)cc1	5
CCOC(=O)CC1(NC(=O)N2CCC3(CC2)Nc2cc(F)ccc2-n2cccc23)CCCCC1	318
C/C=C/c1ccc([C@@H]2[C@@H](CO)N(C(=O)C3CCC3)C23CN(C(=O)NC(C)C)C3)cc1	97
O=C(CCC1CCCO1)NCCc1nc(-c2ccc(Cl)cc2)cs1 (stereo unspecified)	130
Cc1ccc(Cl)cc1NC(=O)CSc1nnc(-c2ccco2)c(-c2ccco2)n1	1
C[C@H]1CN([C@@H](C)CO)C(=O)c2ccccc2-c2ccccc2CO[C@H]1CN(C)S(=O)(=O)c1cccc(C#N)c1	6
CCc1nc(OCC(=O)Nc2cc(OC)cc(OC)c2)c2ccccc2n1	6
CCS(=O)(=O)N1Cc2c(Cn3ccnc3)nn(C(C)C)c2C1	2
O=C(CCc1ccc2[nH]ccc2c1)NCCCN1CCCC1=O	-5
N#Cc1c(Nc2ccccc2F)sc2c(O)cc(=O)[nH]c12	117
COc1ccc(C(=O)N(CC2CCC(=O)N2)C(C)C)o1 (stereo unspecified)	-1
O=C(COc1ccccc1)Nc1ccc2c(c1)OCC1CCCN21 (stereo unspecified)	38
CCOc1ccc(CC(=O)N2CCCCC2c2ccnc3ncnn23)cc1 (stereo unspecified)	14
COc1ccc2nc(CCC(=O)O)[nH]c2c1	11
CN(CCc1ccccn1)c1nc(Cc2ccccc2F)cc(=O)[nH]1	11
C=CCN1CC[C@@H]2OCC[C@@]2(C(=O)N2CCOCC2)C1	-54
COc1nccnc1NS(=O)(=O)c1ccc(NC(=S)NC(=O)c2ccco2)cc1	-9
Nc1ccc2c(c1)C1(CCOCC1)C(=O)N2c1ccsc1	96
CCCc1nc(C)cc(-c2ccc(F)c(CO)c2)n1	-5
CN(C)c1ncnc2c1CCN(S(=O)(=O)c1cccc3nsnc13)C2	-2
O=C(Oc1cc(Cl)cc(Cl)c1)C12CC3CC(CC(C3)C1)C2	-60
CC(C)(C)C1=NN(c2nc3ccc(Cl)cc3s2)C(=O)C1	62
CCS(=O)(=O)N1CC[C@H]2[C@@H](COC)CNC(=O)[C@H]2CC1	-11
Cc1cccc(NC(=O)CN2C(=O)CCc3cc(S(=O)(=O)N4CCC(C)CC4)ccc32)c1	-30
O=C(c1cnn2cc(CCO)cnc12)N1C[C@@H]2[C@@H]3CC[C@@H](C3)[C@@H]2C1	0
CN1CCN(C(=O)C[C@H]2CC[C@H]3[C@@H](COc4ccc(NC(=O)C5CCOCC5)cc4C(=O)N3C)O2)CC1	-13
C=CCN1C(=O)CCCC12CCCN(S(=O)(=O)Cc1ccc(C)cc1)C2 (stereo unspecified)	2
O=c1[nH]cccc1-c1ccc2c(c1)OCO2	3

Shown with each value named: entries from further up.
FC(F)(F)C(F)(F)C(F)(F)c1nnc(-n2cccc2)s1
  Tg IFNy HTS: -62

COc1ccc(S(=O)(=O)NCCc2csc(-c3cccc(F)c3)n2)cc1
  Tg IFNy HTS: 5

CCOC(=O)CC1(NC(=O)N2CCC3(CC2)Nc2cc(F)ccc2-n2cccc23)CCCCC1
  Tg IFNy HTS: 318

C/C=C/c1ccc([C@@H]2[C@@H](CO)N(C(=O)C3CCC3)C23CN(C(=O)NC(C)C)C3)cc1
  Tg IFNy HTS: 97

Other structures follow.
smiles	Tg IFNy HTS
Cc1cc(C)c(S(=O)(=O)N2CCC[C@@H]2C(=O)NCCc2csc(-c3ccccc3)n2)cc1C	-12
CN(C)CC(=O)N1CCc2sc(C(=O)NCc3cccc(F)c3)cc21	18
Cc1sc2ccccc2c1-c1nccn1CC1CC(=O)N(C2CC2)C1 (stereo unspecified)	13
COc1ncccc1-c1ccc2ncnc(NCCO)c2c1	-5
CCc1sc(N2[C@H](C#N)[C@H](c3ccccc3-c3cccc(F)c3)[C@H]2CO)nc1C	-1
CC(C)c1nc(C2CCN(S(=O)(=O)C3CCS(=O)(=O)C3)CC2)c2cccnc2n1 (stereo unspecified)	-23
COc1ccc2c3c(n(C)c2c1)[C@@H](CO)N(C(=O)c1ccccc1)CC31CCN(C(=O)c2ccccc2)CC1	-60
O=C1CCC2(CCN1)CCN(C(=O)c1cc3ccccc3[nH]1)CC2	5
CCS(=O)(=O)N1CCC2(CC1)CC(OCC1CCOCC1)CO2 (stereo unspecified)	10
COc1cc(/C=C/c2ccc(OC)cc2OC)cc(OC)c1	-76*!
COc1cc(CNC(=O)C2(C)CCN(C(=O)CCc3ccccc3)CC2)cc(OC)c1	-8
C=CCOC1C2CCC1N(S(=O)(=O)c1cccnc1)CCO2 (stereo unspecified)	71
CN(C)S(=O)(=O)c1ccc2c(c1)cc(C(=O)NCCCN1CCCC1)n2Cc1ccccc1	-96*
CO[C@H]1CN(C)C(=O)c2ccc(NS(C)(=O)=O)cc2OC[C@@H](C)N(CC2CC2)C[C@@H]1C	17
CN(C)CC(=O)Nc1ccc(C(=O)Nc2cnc3n2CCCC3)cc1	41
CCCNC(=O)Nc1ccc2c(c1)OC[C@H](C)N(Cc1cncnc1)C[C@H](C)[C@H](OC)CN(C)C2=O	99
CCCCNC(=O)c1ccc(-c2cccc(NC(C)=O)c2)o1	-1
O=S(=O)(Cc1ccccc1)N1CC2(C1)[C@H](c1ccccc1)[C@H](CO)N2CC1CCCC1	-59
c1csc(N2CCN(Cc3cnn(C4CCCCC4)c3)CC2)n1	-8
Fc1cnc(N2Cc3cncn3CC(COc3ccccn3)C2)nc1 (stereo unspecified)	-3
O=C(O)CN1CCC2(CCc3ccccc32)CC1	-21
CCOc1cc(C(=O)NCCc2sc(-c3cccc(F)c3)nc2C)cc(OCC)c1OCC	42
CC(C)S(=O)(=O)c1cscc1N1C(=O)c2ccccc2C1=O	-46
CC(C)C(=O)Nc1ccc(-c2nc(-c3ccccc3)co2)cc1	22
Cc1nc(OCC(=O)Nc2ccc(C)c(C)c2)c2ccccc2n1	-12
CO[C@@H]1CN(C)C(=O)c2ccc(NC(=O)C3CC3)cc2OC[C@@H](C)N(C(C)=O)C[C@H]1C	122
CCN(CCn1cccn1)C(=O)c1c(O)cccc1O	5
CCOC(=O)c1csc(-n2nc(C(F)(F)F)cc2-c2ccc(OC)cc2)n1	59
Cn1ccnc1CN1CCCN(c2ccc3c(c2)OCCO3)CC1	29
Cc1c(C2=CCN(S(=O)(=O)c3cccc4cccnc34)CC2)c2ccccc2n1Cc1c(F)cccc1Cl	-57
CCCC(C)c1nnc(NC(=O)c2ccc(NC(C)=O)cc2Cl)s1 (stereo unspecified)	0
CN1[C@@H]2CCN(C(=O)NCCc3ccc(F)cc3)CC[C@@H]2Oc2ccccc2S1(=O)=O	20
COc1ccc(CCNc2ncnc3c2cnn3-c2ccc(C)cc2C)cc1OC	-12
CN(Cc1ccccc1)Cc1cc(C(=O)N(C)Cc2nccn2C)no1	4
CCOc1ccc(S(=O)(=O)N2CCC3(CC2)Nc2cc(F)ccc2-n2cccc23)cc1	23
C[C@H]1CN([C@@H](C)CO)C(=O)c2cc(NC(=O)NC3CCCCC3)ccc2O[C@H]1CN(C)S(C)(=O)=O	49
Cc1nonc1NC(=O)CN1CCCC(N2CCCC2)C1 (stereo unspecified)	-1
Fc1cccc(-c2ccc(C3[C@H]4CNC[C@@H]3N4Cc3ccccn3)cc2)c1 (stereo partly specified)	-68
O=C(C1CCOCC1)N1CC2(C1)[C@@H](c1ccccc1)[C@@H](CO)N2C(=O)CC1CC1	-11
[O-][NH2+]c1ccc(O)c2ncccc12	-84*!
Cc1cc(-c2c(-c3ccccc3)ncn2Cc2noc(C3CCCC3)n2)n[nH]1	-15
Cc1c(CN(C)Cc2ccsc2)cnn1C	3
COCC(=O)N1CCc2ncnc(C3CCOC3)c2CC1 (stereo unspecified)	i
Clc1cccc(N2CCN(C3=Cc4ccccc4C3)CC2)c1	39
CCC(CC)CC1(C(=O)Nc2ccccc2SC(=O)C(C)C)CCCCC1	-65
O=C(c1ccc(-c2ccsc2)nc1)N1CCCN(c2ncccn2)CC1	-10
CCOCCCNC(=O)N1CCC2(CC1)Nc1cc(OC)ccc1-n1cccc12	71
Cc1ccc(CC(=O)N2CCC(C)(C(=O)NCc3ccc(F)cc3F)CC2)cc1	19
CC1c2cccn2CCN1C(=O)c1cn[nH]c1-n1cnnn1 (stereo unspecified)	0
CC(C)N1Cc2ccccc2C2(CCN(C(=O)c3ccnnc3)CC2)C1	5
CN(Cc1nccn1Cc1ccccc1)C(=O)C1CC2(CCNCC2)CN1 (stereo unspecified)	56
CO[C@H]1CN(C)C(=O)c2cc(NC(=O)C3CC3)ccc2OC[C@@H](C)N(Cc2cc(F)ccc2F)C[C@H]1C	-30
C[C@H]1C[C@H]2CN(C(=O)c3cc4ccccc4o3)CC[C@H]2O1	i
O=C1C(=O)N(CN2CCN(c3ccccc3Cl)CC2)c2ccccc21	19
CC(C)(C)NC(=O)CN1C(=O)[C@@H]2CCCN2C(=O)c2ccccc21	-21
Cc1cccc2[nH]c(C3CCCN3Cc3ncc[nH]3)nc12 (stereo unspecified)	2
CCc1nccn1CCC(=O)N1CCC(c2nn(C)c(=O)n2CC)CC1	-1
CN(c1ccccc1)S(=O)(=O)c1cc2c3c(c1)CCN3C(=O)CC2	77
CCc1noc(CN(CC)C(=O)c2cc(Cl)c[nH]c2=O)n1	5
COc1ccccc1CNC(=O)C[C@@H]1C=C[C@H](NC(=O)CC2CC2)[C@@H](CO)O1	-35
CN(C)C(=O)N1C[C@H]2COC[C@@H](CC(=O)N3CCCC3)[C@H]2C1	2
Cc1nnc(SCCNC(=O)c2cc(C3CC3)[nH]n2)s1	0
Nc1c[n+](N2CCOCC2)no1	29

Only part of the results is shown. The share of hits here may be higher or lower than overall.
